# Assay outcomes from PubChem.
# HSV augment = increases HSV replication in cells; HSV replication augmentation in cells, fold increase; maximum fold increase; 220,000 tested, 0.005% active;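 active = peak rise of 1.5-fold or more in the series; inconclusive = self-fluorescent or not available for retest; tested in PC3 cells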;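 note: first round at 10 µM; read as green reporter fluorescence; hits show the peak of a series up to 25 µM; 1 = signal of infected wells without compound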
# INS promoter inh = TRM-6 insulin promoter activity inhibition; TRM-6 cells (human fetal islet line), insulin promoter-eGFP reporter, imaging; reporter expression induced with tamoxifen; inhibition, % at 2 µM; 130,000 tested, 0.9% active;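 active = inhibition above the mean plus 3 SD, with well images judged a real hit on visual review, cut at about 60% in these data, passing the limit was not always enough; inconclusive = inhibition over the cutoff but images rejected on review; inactive = inhibition not above the cutoff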
# RGS16-Gao HTS = regulators of human RGS16-Galphao interaction; bead-based flow cytometry RGS16-Galphao binding, fluorescence; actives lie on both sides; binding response (% of control), % at 10 µM; 220,000 tested, 0.38% active; AID 1441;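 active = below 25% or above 175%, edge rows of some plates excepted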;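 note: Galphao activated by GDP with aluminum fluoride before binding; 100% = wells without compound and 0% = beads without RGS; some results beyond the cut were filed as inactive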
# Target sequence (O15492 whole entry, looked up): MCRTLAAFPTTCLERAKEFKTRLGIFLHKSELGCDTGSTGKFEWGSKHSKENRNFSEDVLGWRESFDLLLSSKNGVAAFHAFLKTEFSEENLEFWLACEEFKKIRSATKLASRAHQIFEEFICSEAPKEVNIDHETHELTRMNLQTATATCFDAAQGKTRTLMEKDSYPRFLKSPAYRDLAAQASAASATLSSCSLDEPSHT
# Target sequence (P09471 whole entry, looked up): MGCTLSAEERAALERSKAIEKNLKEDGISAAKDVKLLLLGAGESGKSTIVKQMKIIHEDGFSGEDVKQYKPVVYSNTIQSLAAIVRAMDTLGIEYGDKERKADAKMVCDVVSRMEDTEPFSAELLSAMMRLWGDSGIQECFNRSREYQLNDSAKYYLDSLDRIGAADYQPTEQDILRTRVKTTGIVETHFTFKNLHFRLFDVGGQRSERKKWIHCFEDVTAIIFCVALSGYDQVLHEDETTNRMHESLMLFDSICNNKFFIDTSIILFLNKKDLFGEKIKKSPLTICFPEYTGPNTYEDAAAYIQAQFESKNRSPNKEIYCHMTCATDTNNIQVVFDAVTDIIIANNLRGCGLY
# GALR2 agonist = activates the human galanin receptor 2; O43603; GALR2-expressing cells, agonist activation read-out; activation, %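 (tested at 5 µM)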; 140,000 tested, 0.48% active;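 active = above mean plus 3 SD of all compounds, about 5% in these data, not always enough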;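 note: 0% = vehicle buffer wells and 100% = reference agonist at full effect; tested in CHO reporter cells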
# Target sequence (O43603 whole entry, looked up): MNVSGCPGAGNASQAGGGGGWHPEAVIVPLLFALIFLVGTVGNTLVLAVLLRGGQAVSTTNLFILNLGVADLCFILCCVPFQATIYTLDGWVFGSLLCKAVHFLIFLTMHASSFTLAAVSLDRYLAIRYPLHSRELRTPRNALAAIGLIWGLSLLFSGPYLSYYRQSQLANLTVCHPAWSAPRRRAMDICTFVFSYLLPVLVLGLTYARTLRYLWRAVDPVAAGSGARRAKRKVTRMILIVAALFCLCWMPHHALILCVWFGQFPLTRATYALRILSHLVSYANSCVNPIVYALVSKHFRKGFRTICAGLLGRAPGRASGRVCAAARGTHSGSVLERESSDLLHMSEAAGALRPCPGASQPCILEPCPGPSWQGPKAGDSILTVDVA
# PKD1 kinase inh = PKD1 (human) kinase inhibition; Q15139; PKD1 kinase fluorescence polarization assay; inhibition, %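 (about 10 µM by stock and volumes)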; 200,000 tested, 0.056% active; AID 797;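 active = inhibition of 50% or more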;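 note: controls were vehicle for no effect and a reference inhibitor for full effect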
# INS promoter inh cell count = second read-out of INS promoter inh, no call of its own (marks repeat the call); normalized cell count, %; measured here: cell count, toxicity; reference of the scale not given here;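 cells exposed to compound for 48 h; stained nuclei by imaging scaled within each plate; lower means fewer cells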
# HSV augment primary fold = recorded beside HSV augment, whose call it bears; fold increase; compound at 10 µM; measured here: primary screen fold increase 10 uM; tested in PC3 cells;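 GFP signal in the first replicate; 1 = infected wells without compound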
# Starred values were filed as active, the others as inactive; i = inactive; ? = inconclusive; . = not tested or not shown.
compound | HSV augment | HSV augment primary fold | INS promoter inh | INS promoter inh cell count | RGS16-Gao HTS | GALR2 agonist | PKD1 kinase inh
Cc1cc(/C=C2\SC(=S)N(Cc3ccco3)C2=O)c(C)n1-c1cccnc1 | . | . | -34.6 | 129.2 | 113.8 | -1.9 | -5.6
CCc1c(C)nc2c(C#N)c(C)[nH]n2c1=O | i | 1 | -54.2 | 108.3 | 102.7 | -4.5 | -5.4
CCOC(=O)N1CCN(C(=O)c2ccc3c(=O)n(Cc4ccccc4)c(=S)[nH]c3c2)CC1 | i | 0.85 | -6.1 | 90.9 | 96.2 | -2.8 | 4.1
COc1ccc(-c2nnc3ccc(SCC(N)=O)nn23)cc1OC | i | 1.21 | . | . | 101.6 | 0.4 | 3.6
CCOC(=O)c1cc(C#N)c(SCC(=O)O)[nH]c1=O | i | 0.94 | -40.0 | 108.5 | 96.8 | . | -1.9
O=C(Nc1ccc(Nc2ccccc2)cc1)c1ccco1 | i | 0.89 | 4.0 | 87.3 | 119.0 | 1.4 | -1.5
CC(C)CCNC(=O)NC(=O)CSc1nnc(-c2ccccc2Br)o1 | i | 0.88 | 2.7 | 82.3 | 102.3 | -1.9 | -6.4
CCOP(=O)(OCC)C(O)c1cc(OC)c(OC)c(OC)c1 (configuration not stated) | i | 0.9 | 17.6 | 129.6 | 105.1 | -0.5 | -3.4
C=CCN(CC=C)C(=O)Nc1ccc2nc(C)sc2c1 | . | . | 0.0 | 96.3 | 91.3 | 0.1 | -8.6
O=c1oc2ccccc2n1CCn1c2ccccc2c2nc3ccccc3nc21 | i | 1 | 33.3 | 94.0 | 101.8 | 1.7 | -5.9
O=c1[nH]nc(N/N=C/c2ccccc2OC(F)F)c(=O)[nH]1 | i | 1.08 | . | . | 99.9 | . | .
O=C1CCCc2c1nc(-c1ccccc1)n2O | i | 1.18 | -2.7 | 181.6 | 99.2 | 0.6 | 6.1
COC(=O)c1c(C)oc(C)c1S(=O)(=O)N(Cc1ccccc1)C(C)C | i | 1.2 | . | . | 87.3 | . | .
Cc1ccc2nsnc2c1NC(=O)COc1ccccc1F | i | 0.89 | . | . | 96.8 | . | -4.9
C=CCn1c(SCC(N)=O)nc2nc3c(cc2c1=O)COC(C)(C)C3 | i | 0.84 | . | . | 91.6 | . | .
Cc1ccc(CN2CCN(C/C(Cl)=C/c3ccccc3)CC2CCO)o1 (configuration not stated) | i | 1.05 | . | . | 109.6 | . | 9.5
CC(C)(C)OC(=O)N1CCC(C(=O)O)CC1 | i | 0.97 | -22.9 | 148.8 | 100.1 | -3.0 | 1.1
Cc1nnc(N2CCOCC2)c2ccccc12 | i | 0.99 | 28.6 | 82.5 | 101.3 | 0.8 | -0.6
C/C(=N\NC(=S)NC1CCCCC1)c1cccs1 | i | 1 | 29.4 | 142.4 | 100.3 | . | -0.5
CCOc1cc(/C=N\Nc2ccc([N+](=O)[O-])cc2)ccc1OCC(=O)Nc1ccc(C)c(C)c1 | ? | . | -42.9 | 86.2 | 92.7 | -2.2 | -3.5
COCC(C)n1c(C)cc(C(=O)CSc2ncccn2)c1C (configuration not stated) | i | 0.97 | 33.3 | 66.5 | 104.4 | . | -1.8
CCOc1ccc(-c2nnc3sc(COc4ccccc4)nn23)cc1 | i | 1.03 | . | . | 102.7 | -1.7 | 1.9
Cc1cc(Cl)ccc1OCC(=O)N1CCCCC1 | i | 1.08 | 6.7 | 87.5 | 102.3 | -0.4 | -17.2
O=S(=O)(Nc1ccc(Cc2ccncc2)cc1)c1cccs1 | i | 1.2 | 12.5 | 67.5 | 105.9 | 0.6 | -4.0
CN(/N=C/c1ccc([N+](=O)[O-])o1)c1ccccc1 | i | 0.92 | -57.1 | 88.5 | 113.6 | . | -9.9
CCOC(=O)c1sc2nc(CC(=O)OC)nc(NCc3ccc(F)cc3)c2c1C | i | 0.86 | 46.1 | 184.8 | 101.3 | -0.4 | -0.7
CC(C)c1nnc(NC(=O)Cc2ccccc2[N+](=O)[O-])s1 | i | 0.84 | 0.0 | 85.7 | 99.9 | -0.5 | -7.4
CCn1ncc(/C=N\NC(=O)c2csc3ccccc23)c1C | i | 0.68 | . | . | 98.3 | -1.9 | -3.2
O=C(c1ccccc1F)N1CCN(c2cnn(-c3cccc(Cl)c3)c(=O)c2Cl)CC1 | i | 0.92 | . | . | 103.0 | . | 7.5
S=C(NCCc1ccccn1)Nc1ccc(Cl)cc1 | i | 0.97 | . | . | 101.2 | -1.5 | 12.6
CCOc1c(C(=O)CC)cc2c(C)cc(=O)oc2c1C | i | 0.91 | -28.6 | 87.8 | 64.7 | -1.5 | 5.8
CCN(CC)CCN(C(=O)c1ccc([N+](=O)[O-])cc1)c1nc2c(OC)cccc2s1 | i | 0.99 | -16.7 | 76.5 | 104.7 | . | 0.7
CN(C)c1ccc(N=Nc2ccccc2C(=O)OCC(=O)N(C)C2CCCCC2)cc1 | i | 0.95 | 9.7 | 81.2 | 101.8 | -1.8 | -8.5
Cc1nc(SCC(=O)CC(=O)OC(C)C)c(C#N)c(C)c1C | i | 0.82 | -29.7 | 121.1 | 111.1 | -1.6 | -11.8
CC1CCC(NCC(=O)Nc2cccc(S(N)(=O)=O)c2)CC1 (configuration not stated) | i | 0.95 | . | . | 98.4 | . | -1.4
CS(=O)(=O)NCCNC(=O)c1cc(OCC(F)(F)F)ccc1OCC(F)(F)F | i | 1.1 | . | . | 109.7 | . | -3.9
Cc1ccc2[nH]c3c(=O)n(CCCN4CCN(C)CC4)cnc3c2c1 | i | 0.85 | 25.9 | 120.1 | 108.5 | -0.6 | -4.5
Cc1nc(NC(=O)c2ccco2)sc1-c1csc(Nc2ccc(Cl)cc2)n1 | i | 1.02 | 24.3 | 134.3 | 104.4 | -3.3 | 4.9
Cn1c(CN2CCN(C(=O)c3ccccc3)CC2)nc2cc([N+](=O)[O-])ccc21 | i | 0.88 | 22.9 | 115.7 | 90.3 | 0.0 | 4.0
CCCCC(=O)Nc1ccc(NC(=O)c2cnccn2)cn1 | i | 1.14 | -10.5 | 58.4 | 88.8 | . | 2.7
CNc1nc(-c2ccccc2)[n+](-c2ccc(C)cc2)s1 | i | 0.98 | . | . | 99.1 | -0.5 | -8.1
N#Cc1c(/N=C\c2ccc(O)c([N+](=O)[O-])c2)sc2c1CCCC2 | i | 1.06 | -25.0 | 78.3 | 100.6 | . | -1.1
COc1ccc(-c2nc(CCl)cs2)cc1 | . | . | 14.3 | 70.3 | 97.7 | . | -9.9
CN(C)C=NC(=O)c1cc(C(=O)c2ccc(Cl)cc2)c[nH]1 | i | 0.98 | . | . | 100.8 | . | -1.6
CCn1cc(/C=N/O)c(C)n1 | i | 0.96 | . | . | 2.9 | -0.1 | -3.1
Cc1cccc(N2CC(C(=O)Nc3nnc(SCC(=O)Nc4nccs4)s3)CC2=O)c1 (configuration not stated) | i | 0.97 | 40.7 | 160.8 | 112.2 | 2.8 | -3.6
CCCC(=O)Nc1ccc(-c2csc(N/N=C\c3ccncc3)n2)cc1 | i | 1.04 | . | . | 97.3 | . | .
O=C(COc1ccccc1)Nc1ccc(S(=O)(=O)Nc2ncccn2)cc1 | i | 0.71 | . | . | 105.5 | . | -3.3
CC(=O)Nc1ccc(NC(=O)COC(=O)c2c3c(nc4ccccc24)CCN(Cc2ccccc2)C3)cc1 | i | 1.01 | . | . | 98.3 | 0.1 | 3.5
CCOc1ncccc1C(=O)N(C)CC1COc2ccccc2O1 (configuration not stated) | i | 1.02 | -8.1 | 80.8 | 91.8 | -0.5 | -1.8

# The results go on.
compound | HSV augment | HSV augment primary fold | INS promoter inh | INS promoter inh cell count | RGS16-Gao HTS | GALR2 agonist | PKD1 kinase inh
COc1ccc(CCC(=O)NCc2cn3ccccc3n2)cc1 | i | 1.02 | . | . | 106.7 | . | .
NC(=S)NNC(=O)c1ccccc1 | i | 1.3 | -34.9 | 176.2 | 100.0 | -0.9 | 3.7
O=C1C2CC=C(Cl)CC2C(=O)N1CNc1ccccn1 (configuration not stated) | . | . | -32.1 | 121.2 | 104.5 | -0.5 | 2.3
CC1CCCCC12NC(=O)N(CC(=O)Nc1ccccc1N1CCOCC1)C2=O (configuration not stated) | i | 1.06 | . | . | 102.8 | . | -8.3
COc1ccc(C(=O)Nc2ccc(N3CCCC3)cc2)cc1 | i | 0.99 | -196.9 | 131.5 | 88.9 | -2.7 | -3.5
CCOc1ccc(OCc2ccc(C(=O)O)o2)cc1 | i | 1.01 | . | . | 42.1 | -2.5 | -5.1
O=C(Nc1cccc(Cl)c1)Nc1ccc2c(c1)OCO2 | i | 0.87 | -160.0 | 71.7 | 112.9 | -3.0 | 13.1
CN1CCN(S(=O)(=O)c2ccc3c(c2)OCCO3)CC1 | i | 0.85 | -25.0 | 120.1 | 107.4 | -1.5 | -5.0
O=C(COc1ccccc1Cl)N1CCCC1 | i | 0.73 | -91.8 | 67.8 | 98.3 | -2.0 | -5.5
CCn1c(CNc2ccc(OC)cc2)nnc1SCC(=O)c1ccc(OC)cc1 | i | 0.87 | -22.5 | 131.2 | 95.6 | -0.6 | -6.7
Cc1nn(C)cc1CN(C)C(=O)CC12CC3CC(CC(C3)C1)C2 | i | 1.05 | -18.8 | 135.6 | 105.2 | -1.4 | 4.0
CC1(C)CC(=O)C2=C(C1)N(CC1CCCO1)C(=O)C2(NC(=O)c1cccnc1)C(F)(F)F (configuration not stated) | i | 1.16 | . | . | 109.4 | 0.6 | -4.2
CCOC(=O)Cn1c2ccc(C)cc2c2nc(C)sc21 | i | 0.99 | . | . | 97.3 | . | -4.2
Cc1ccccc1-n1c(-c2cccnc2)n[nH]c1=S | i | 1.09 | -37.5 | 99.7 | 98.2 | -1.7 | 0.0
COc1ccc(CN2CCN(CC=C(C)C)C(CCO)C2)cc1Cn1cccn1 (configuration not stated) | i | 0.88 | . | . | 98.7 | . | -6.7
Cc1cnc(NC(=O)CN2CCN(c3ccccc3F)CC2)s1 | i | 0.94 | -320.0 | 69.2 | 105.8 | -2.1 | 4.7
OCCN1CCN(Cc2cc(Br)cc(Br)c2O)CC1 | i | 0.99 | 10.0 | 93.1 | 118.3 | -0.8 | -16.9
CCCS(=O)(=O)N1CCC(C(=O)NCCN2CCC(Cc3ccccc3)CC2)CC1 | i | 0.9 | . | . | 95.1 | -1.1 | -8.8

# Given with two lines to a compound: part of the list above.
# Values run as follows: HSV augment	HSV augment primary fold	INS promoter inh	INS promoter inh cell count	RGS16-Gao HTS	GALR2 agonist	PKD1 kinase inh
- COc1ccc(CCC(=O)NCc2cn3ccccc3n2)cc1
    i	1.02	.	.	106.7	.	.
- NC(=S)NNC(=O)c1ccccc1
    i	1.3	-34.9	176.2	100.0	-0.9	3.7
- O=C1C2CC=C(Cl)CC2C(=O)N1CNc1ccccn1 (configuration not stated)
    .	.	-32.1	121.2	104.5	-0.5	2.3
- CC1CCCCC12NC(=O)N(CC(=O)Nc1ccccc1N1CCOCC1)C2=O (configuration not stated)
    i	1.06	.	.	102.8	.	-8.3
- COc1ccc(C(=O)Nc2ccc(N3CCCC3)cc2)cc1
    i	0.99	-196.9	131.5	88.9	-2.7	-3.5
- CCOc1ccc(OCc2ccc(C(=O)O)o2)cc1
    i	1.01	.	.	42.1	-2.5	-5.1
- O=C(Nc1cccc(Cl)c1)Nc1ccc2c(c1)OCO2
    i	0.87	-160.0	71.7	112.9	-3.0	13.1
- CN1CCN(S(=O)(=O)c2ccc3c(c2)OCCO3)CC1
    i	0.85	-25.0	120.1	107.4	-1.5	-5.0
- O=C(COc1ccccc1Cl)N1CCCC1
    i	0.73	-91.8	67.8	98.3	-2.0	-5.5
- CCn1c(CNc2ccc(OC)cc2)nnc1SCC(=O)c1ccc(OC)cc1
    i	0.87	-22.5	131.2	95.6	-0.6	-6.7
- Cc1nn(C)cc1CN(C)C(=O)CC12CC3CC(CC(C3)C1)C2
    i	1.05	-18.8	135.6	105.2	-1.4	4.0
- CC1(C)CC(=O)C2=C(C1)N(CC1CCCO1)C(=O)C2(NC(=O)c1cccnc1)C(F)(F)F (configuration not stated)
    i	1.16	.	.	109.4	0.6	-4.2
- CCOC(=O)Cn1c2ccc(C)cc2c2nc(C)sc21
    i	0.99	.	.	97.3	.	-4.2
- Cc1ccccc1-n1c(-c2cccnc2)n[nH]c1=S
    i	1.09	-37.5	99.7	98.2	-1.7	0.0
- COc1ccc(CN2CCN(CC=C(C)C)C(CCO)C2)cc1Cn1cccn1 (configuration not stated)
    i	0.88	.	.	98.7	.	-6.7
- Cc1cnc(NC(=O)CN2CCN(c3ccccc3F)CC2)s1
    i	0.94	-320.0	69.2	105.8	-2.1	4.7

# Some entries already given, reduced to PKD1 kinase inh.
canonical_smiles | PKD1 kinase inh
OCCN1CCN(Cc2cc(Br)cc(Br)c2O)CC1 | -16.9
CCCS(=O)(=O)N1CCC(C(=O)NCCN2CCC(Cc3ccccc3)CC2)CC1 | -8.8

# This is a random part of the collection. Share with any hit: about 1.3%.
